Screening data deposited in PubChem BioAssay by several laboratories.
HIV Env fusion: HIV envelope-mediated fusion inhibition | hit rate 1.1% among 360,000 | HeLa-JRFL Env/CEM21 cell fusion, luciferase | inhibition, % at 12.3 µM | AID 651610;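 active means mean replicate inhibition score of at least 50 and every replicate individually at or above 50; inconclusive means only one of the two criteria met; inactive means mean below 50 and not all replicates reaching 50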;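 further: 0% = plate neutral controls and 100% = maraviroc near 300 nM; one replicate is shown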
eIF4H FP inh: inhibitors of RNA binding by human eIF4H | inhibition, % at 35 µM | AID 2012 | hit rate 0.94% among 290,000 | Q15056 | eIF4H fluorescence polarization binding assay;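 active means 50% or more with normal probe brightness, or confirmed in later tests; inconclusive means above 50% with abnormal brightness, or retests that disagree; inactive means below 50% or failed in later tests; about a fifth of its hits are not listed in these tables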;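 further: calls also rest on retests at 20 µM and on dose response follow-up; 0% = protein and probe with vehicle and 100% = probe without protein; strong numbers were not always called active; many hits fall short of the cut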
CSC inhib: blocks cancer stem cells; cancer stem cell-like cells viability, luminescence; inhibition, % at 7.5 µM; hit rate 1.1% among 300,000;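 active means mean at 75% or more and at least half the replicates too; inconclusive means mean and replicates disagree; tested in HMLE shEcad cells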;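 further: 0% = median of negative and 100% = median of positive control wells; the first replicate is given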
MT1-MMP act inh: blocks activation of human MT1-MMP | hit rate 0.061% among 360,000 | GFP/RFP ratio change, % at 20 µM | P50281 | HT1080 RFP-PRO-GFP cells, GFP/RFP ratio fluorescence, overnight; percent of plate control window, DMSO zero;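 active means GFP/RFP ratio change of at least 30% with cell ATP level not reduced by more than half and red fluorescence within 50% of control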; further: strong numbers were not always called active
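Material: RFP-PRO-GFP reporter HT1080 cells. Dosing: single-point 20 µM compound, 1% DMSO. Controls: DMSO and RFP-L50D-GFP cell wells. Timing: cells overnight before dosing, compound overnight, 37 °C, 5% CO2. Measure: GFP/RFP fluorescence ratio.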
PABP polyA inh: blocks human PABP binding to poly(A) RNA; inhibition, % at 35 µM; AID 2014; fluorescence polarization; P11940; hit rate 1% among 290,000;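 active means 50% or more with normal probe brightness, or confirmed in later tests; inconclusive means above 50% with abnormal brightness, or retests that disagree; inactive means below 50% or failed in later tests; about a fifth of its hits are not listed in these tables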;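 further: calls also rest on retests at 20 µM and on dose response follow-up; controls were probe without protein and protein plus probe with vehicle; some compounds called inactive have numbers as strong as hits; many hits fall short of the cut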
Target sequence (P11940 whole entry, looked up): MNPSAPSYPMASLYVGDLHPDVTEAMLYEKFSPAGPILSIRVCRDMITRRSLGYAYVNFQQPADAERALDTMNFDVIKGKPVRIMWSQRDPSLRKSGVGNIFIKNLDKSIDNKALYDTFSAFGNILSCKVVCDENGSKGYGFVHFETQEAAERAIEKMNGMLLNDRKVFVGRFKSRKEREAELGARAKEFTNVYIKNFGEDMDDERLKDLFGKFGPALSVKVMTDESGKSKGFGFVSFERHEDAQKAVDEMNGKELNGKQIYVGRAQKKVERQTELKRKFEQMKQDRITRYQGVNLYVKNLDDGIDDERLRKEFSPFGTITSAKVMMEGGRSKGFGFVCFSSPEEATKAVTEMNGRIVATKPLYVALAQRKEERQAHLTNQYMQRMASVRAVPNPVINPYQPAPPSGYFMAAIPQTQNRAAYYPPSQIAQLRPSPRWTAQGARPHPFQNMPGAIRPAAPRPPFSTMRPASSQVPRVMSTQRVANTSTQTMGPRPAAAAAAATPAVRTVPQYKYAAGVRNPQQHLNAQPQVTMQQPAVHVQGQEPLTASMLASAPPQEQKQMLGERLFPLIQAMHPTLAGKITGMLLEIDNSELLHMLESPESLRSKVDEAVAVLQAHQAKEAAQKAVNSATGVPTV
Rce1 inh: inhibitors of yeast Ras-converting enzyme; Q03530; yeast membranes, quenched prenylated peptide cleavage fluorescence; calls only; hit rate 0.27% among 290,000;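 active means fall in fluorescence gain of 50% or more versus controls, with final raw signal at or below 3038400; inconclusive means same 50% fall but final raw signal above 3038400; inactive means fall in fluorescence gain under 50%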;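 further: plate controls were neutral control wells for no effect and wells lacking membranes for full effect; tested at 10 µM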
Target sequence (Q03530 whole entry, looked up): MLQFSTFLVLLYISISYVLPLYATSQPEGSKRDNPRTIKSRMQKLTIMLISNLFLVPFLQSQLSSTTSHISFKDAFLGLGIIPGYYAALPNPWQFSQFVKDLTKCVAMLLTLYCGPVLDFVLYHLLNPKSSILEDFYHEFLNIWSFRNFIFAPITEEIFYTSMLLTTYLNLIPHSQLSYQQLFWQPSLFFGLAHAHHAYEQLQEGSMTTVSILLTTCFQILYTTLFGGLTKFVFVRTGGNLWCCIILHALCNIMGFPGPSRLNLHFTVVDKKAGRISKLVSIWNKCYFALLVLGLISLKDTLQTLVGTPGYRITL
UUG fidelity: yeast start codon fidelity modulation | S. cerevisiae UUG-firefly luciferase reporter, luminescence/redox ratio | activity score, % at 18.7 µM | hit rate 0.13% among 350,000 | AID 602363;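 active means replicate mean at a twofold rise or more, about +100% in these data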;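 further: firefly luciferase made from a UUG start codon reports start codon fidelity; reporter light over untreated wells divided by growth signal over untreated wells; some hits fall short of that in this replicate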
eIF4H FP inh retest: second read-out of eIF4H FP inh, no call of its own (marks repeat the call); inhibition, %; compound at 20 µM; confirmation average;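 mean of two retest wells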
PABP polyA inh retest: second read-out of PABP polyA inh, no call of its own (marks repeat the call); inhibition, %; compound at 20 µM; confirmation repeats;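 mean of two retest wells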
MT1-MMP act inh RFP: second read-out of MT1-MMP act inh, no call of its own (marks repeat the call); RFP signal change, %; measured here: RFP expression control read;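 0 = vehicle wells; hits needed this value within 50% of zero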
* = called active by the depositor; i = inactive; ? = inconclusive; · = no result given; & = joins results of further samples.

SMILES	HIV Env fusion	eIF4H FP inh	CSC inhib	MT1-MMP act inh	MT1-MMP act inh RFP	PABP polyA inh	Rce1 inh	UUG fidelity	others
Cc1ccc(C2NC(=NCc3ccccc3)Nc3nc(C)cc(=O)n32)cc1 (centres undefined)	26	-8	1	2	4	8	i	-2
Cc1ccc(S(=O)(=O)n2nc(OC(=O)c3c(F)cccc3Cl)cc2N)cc1	-6	18	-7	1	1	15	i	-12
CCN(CC(=O)Nc1ccc(OC)cc1)C(=O)c1ccc(Cl)c(S(=O)(=O)N2CCCC2)c1	4	·	·	4	1	·	·	-5
CN(C)Cc1c(C(=O)N/N=C/C2CC=CCC2)nnn1-c1nonc1N (centres undefined)	-6	10	-6	1	3	4	·	-6
Cc1ccc(C)c(CN2CCCN(Cc3cc(C)ccc3C)S2(=O)=O)c1	15	-12	·	-2	-2	-6	i	-5
CC1CCN(C(=O)c2[nH]cnc2C(=O)Nc2ccccc2F)CC1	27	·	·	2	4	·	·	-10
Clc1ccc(-n2nnnc2-c2cnc(-c3ccccn3)nc2-c2cccs2)cc1	-24	-11	7	3	-7	2	i	-24
CC(C)=CCc1c(O)cc(O)c2c1OC(c1ccc(O)cc1)CC2=O (centres undefined)	·	·	0	-13	-16	·	·	4
COc1ccc(/C=N/NS(=O)(=O)c2ccc(NC(C)=O)cc2)cc1	9	-5	-8	-1	-1	-1	i	·
C#CCOCCOCCOCCNc1nc(N2CCN(C(=O)Cn3cc(CCO)nn3)CC2)nc(N2CCN(C(=O)Cn3cc(CCO)nn3)CC2)n1	4	·	·	4	2	·	·	7
COC(=O)c1ccccc1NC(=O)CN(c1cc(OC)ccc1OC)S(C)(=O)=O	-56	9	-10	4	3	-4	i	1
COc1ccc(C(C)(C)NC(=O)C2CCC(=O)N(C3CCCC3)C2)cc1OC (centres undefined)	4	0	-6	1	0	8	i	-14
CCN(CC)S(=O)(=O)c1cc(C)c(C)cc1Br	·	10	-14	-4	-1	3	i	-49
Cc1cccc(CSCc2nnc(N)s2)c1	·	-6	1	1	4	2	i	·
COc1ccc(N2C(=O)CC(Sc3nc4ccccc4s3)C2=O)cc1 (centres undefined)	3	-21	-3	-2	1	-10	i	·
O=S(=O)(c1cccs1)N1CCN(CCc2ccccc2)CC1	0	12	0	-2	-9	-8	i	-12
C/C(=N\O)c1sc(-c2ccccc2)nc1C	-145	-7	·	4	8	21	i	·
Cc1cc(C(=O)CCl)c(C)n1CC1COc2ccccc2O1 (centres undefined)	24	-15	-10	-8	-1	9	i	0
CN(C)c1ccc(/C=C/c2ccncc2)cc1	-136	32	·	-30	31	34	·	13
COCCNC(=O)c1ccc2c(Cl)c3c(nc2c1)CCC3	-31	1	-5	0	-1	0	i	-10
O=C(CSc1ncn(-c2ccccc2)n1)Nc1nc2c(s1)CCCC2	12	74*	2	1	-3	31*	i	-22	eIF4H FP inh retest=84*;PABP polyA inh retest=56*
COc1ccc(-n2ncc3c2CC(C)(C)CC3NC(=O)CN2CCOC2=O)cc1 (centres undefined)	0	-9	-32	2	6	8	i	14
CN(C)Cc1cc(C(C)(C)C)cc(N2CCOCC2)c1O	-12	·	·	1	2	·	·	-5
CCN1C(=O)N[C@@H](c2ccc(Br)cc2)C(C(C)=O)=C1C	-20	·	-14	0	-3	·	i	3
Cc1cc([N+](=O)[O-])nn1CC(=O)Nc1cccc2nonc12	13	0	·	-7	2	-12	i	-7

Later entries
SMILES	HIV Env fusion	eIF4H FP inh	CSC inhib	MT1-MMP act inh	MT1-MMP act inh RFP	PABP polyA inh	Rce1 inh	UUG fidelity	others
CC(C)(CNC(=O)C1CCCC1)CNC(=O)C1CCCC1	-14	1	-2	-4	-1	4	i	-7
COc1ccc(Cl)cc1N(CC(=O)N1CCN(Cc2ccccc2)CC1)S(C)(=O)=O	-16	0	-15	2	8	3	i	-8
Cc1ccc(C(=O)CCC(=O)OCC(=O)Nc2c(C)nn(-c3ccccc3)c2C)cc1	1	·	-17	1	0	·	i	-5
Cn1ccc(C(=O)Nc2ccc(Br)cc2Br)n1	-173	-8	18	0	0	2	i	·
Nc1c(C(=O)CSc2nnc(N3CCOCC3)n2-c2cccc(F)c2)c(=O)[nH]c(=O)n1C1CC1	-8	·	·	4	0	·	·	-5
Cc1onc(-c2ccccc2)c1C(=O)N1CCN(C(=O)c2ccco2)CC1	·	-7	-10	-2	-3	8	i	-9
Cc1ccc(CN2CCC(CNS(=O)(=O)c3ccc(-c4ccc(=O)[nH]n4)s3)CC2)cc1	3	1	-5	6	3	20	i	14
COCc1nnc(NC(=O)c2ccc(S(=O)(=O)N(CC(C)C)CC(C)C)cc2)o1	24	15	26	0	-1	-8	i	·
CCOC(=O)c1c(NC(=O)C2=C(C)NC(=S)NC2c2ccccc2C(F)(F)F)sc(C)c1C (centres undefined)	·	-2	24	-21	-16	-4	i	-9
COC(=O)CCCC1=CC2=C(c3ccccc3)C(=O)C(C)(OC(=O)C3CCCC3)C(=O)C2=CN1CCc1ccccn1 (centres undefined)	·	23	5	-1	8	10	i	-15
CC(C)(C)NC(=O)/C(=C\C=C\c1ccccc1)NC(=O)c1ccc([N+](=O)[O-])cc1	-9	-3	16	1	-3	-6	·	·
CCOn1c(=O)c(-c2ccc(Cl)cc2)[n+]([O-])c2ccccc21	7	1	-9	2	3	1	i	-11
COc1ccc(S(=O)(=O)N2CCC(C(=O)NCc3cccc(OC)c3)CC2)cc1	9	-5	-8	1	-1	-7	i	9
CCOc1ccccc1OCCCNCc1ccccc1	5	27	-5	-2	1	-2	·	-10
C=CCSc1ccccc1C(=O)Nc1ncn[nH]1	11	-6	-6	-1	3	-6	i	-22
COc1ccc(Br)c(/C=N/NC(=O)COc2ccc(-c3ccccc3)cc2)c1	·	4	40	-5	-3	-4	i	-18
O=C(CC1OC(=O)c2ccccc21)Nc1cc(Cl)ccc1N1CCCC1 (centres undefined)	-1	·	2	-2	-2	·	i	3
COc1cc2ccnc(C=NO)c2cc1OC	34	·	·	-16	-5	·	·	-24
CCCCc1ccc(N=N/C(C(=O)Nc2ccccc2OC)=C(/C)O)cc1	-28	-9	15	-13	-4	-13	i	-15
COc1ccc(-c2ccc(CN3C(C)C(=O)N(Cc4cn(CC5CCCCC5)nn4)CCS3(=O)=O)cc2)cc1 (centres undefined)	38	·	·	-4	-22	·	·	-6
COCCn1c(N)c(NCc2ccccc2)c(=O)[nH]c1=O	18	?	-5	-5	0	?	i	-7
O=C(NC1CCCc2ccccc21)C1CCN(S(=O)(=O)c2ccccc2F)CC1 (centres undefined)	7	0	-7	4	-2	-9	i	8
CCNC(=O)C(=O)Nc1ccc2c(c1)N(S(=O)(=O)c1cccs1)CCC2	-4	·	·	-1	-1	·	i	-9
CCCc1ccc2oc(C(=O)N3CCNC(=O)C3CC(=O)OC)c(C)c2c1 (centres undefined)	-9	-15	-17	2	-2	3	·	5
CC(OC(=O)C1CCCO1)C(=O)NC1CCCC1 (centres undefined)	-16	-3	0	-2	4	-4	i	-12

Additional structures follow.
SMILES	HIV Env fusion	eIF4H FP inh	CSC inhib	MT1-MMP act inh	MT1-MMP act inh RFP	PABP polyA inh	Rce1 inh	UUG fidelity	others
CCCc1cc(-c2[nH]ncc2-c2ccc3c(c2)OCCCO3)c(O)cc1OC	-40	14	·	·	·	-4	·	·
CNCCCC12CCC(c3ccccc31)c1ccccc12	10&6&-12	-9&-12&-4&-5	-8&0&4	-8&-6&-6	-4&-3&-2	6&8&-3&-3	i	10&-1&-16
O=C(O)c1ccccc1Sc1c([N+](=O)[O-])cc(C(F)(F)F)cc1[N+](=O)[O-]	29	-1	15	2	-5	4	i	·
FC(c1nc2ccccc2[nH]1)C(F)(F)F (centres undefined)	-7	-10	0	0	3	-7	i	-12
CN(C)c1ccc(C2N(C(=O)N3CCOCC3)CCN2S(=O)(=O)c2ccccc2)cc1 (centres undefined)	-10	-7	-3	-3	-3	-9	i	-2
CC(Oc1ccc2c(-c3ccccc3)cc(=O)oc2c1)C(=O)N1CCOCC1 (centres undefined)	15	·	-24	0	0	·	·	-6
O=S(=O)(c1ccc(Br)cc1)N1CCN(Cc2ccco2)CC1	3	-18	-3	0	1	-7	i	-1
Cc1cccc(CN2CCN(Cc3nc4c(s3)CCCC4)CC2CCO)n1 (centres undefined)	-7	12	·	-4	0	-4	i	·
CCO/N=C/C1=C(O)C(C(=O)OC)C(C)(C)CC1=O (centres undefined)	14	6	-6	-2	3	9	i	·
COc1ccc(CCNC(=O)C(=O)NCC2CCNCC2)cc1OC	-26	-2	-8	1	-1	-11	·	-7
Cc1ccc(CN2CCS(=O)(=O)CC2)o1	-7	-1	1	-2	1	11	i	·
Cc1ccc2c(C)c(C(=O)Nc3c(C)n(C)n(-c4ccccc4)c3=O)oc2c1	·	-2	-3	7	0	-7	i	-8
NN1C(=O)c2cccc3c(C(=O)O)ccc(c23)C1=O	-53	9	·	-1	3	12	i	-19
CC(=O)N1CCc2cc(S(=O)(=O)NC(Cc3ccccc3)C(=O)Nc3cc(C)ccn3)ccc21 (centres undefined)	·	-17	-5	-2	-3	-11	i	-8
CCn1cc(C(=O)O)c(=O)c2cc(F)c(N3CCN(C(=S)NC(=O)c4ccc(Br)cc4)CC3)cc21	26	26	-11	-14	-23	-8	i	-16
COc1cccc(CNC(=O)COc2ccc(C(=O)c3ccccc3)cc2)c1	-17	5	·	1	3	4	i	2
NC(=O)CC(NC(=O)c1ccc(Br)cc1)c1ccc(N2CCC(Cc3ccccc3)CC2)c([N+](=O)[O-])c1 (centres undefined)	22	-6	-4	3	-13	7	i	-20
COc1ccc(CCC(C)NC(=O)Cc2ccc(OC)c(OC)c2)c(OC)c1 (centres undefined)	8	-5	-9	0	-13	0	i	-8
O=C(O)C1CCN(c2ccccc2[N+](=O)[O-])CC1	-7	5	4	0	1	-4	i	1
COC(=O)c1c(NC(=O)c2ccc(C)cc2)sc(Cc2ccccc2)c1C	-47	-8	·	-7	-8	3	i	-15
Cc1cccc2cc(COC(=O)C3CCCO3)c(=O)[nH]c12 (centres undefined)	·	-1	-3	-2	2	-1	i	0
COc1ccc(C(=O)N/C(=C\c2ccccc2)C(=O)Nc2cccc(C(=O)O)c2)cc1	-7	-1	-5	-1	3	5	i	-7
CCCCOc1ccc(C2C(C(=O)c3cccs3)=C(O)C(=O)N2CCN2CCOCC2)cc1 (centres undefined)	-6	0	-14	0	3	-6	i	4
CCOc1ccccc1/C=N/Nc1nc(C)cc(=O)[nH]1	·	3	-9	3	0	5	i	-17
COCCCn1c(=S)[nH]c2ncccc2c1=O	4	-2	4	-1	0	-2	i	-16
O=C(C1CCC(N2C(=O)C3CC=CCC3C2=O)CC1)N1CCCCC1 (centres undefined)	·	-2	-11	-1	-6	11	·	-19
CCOC(=O)C1=C(C)NC(=O)NC1c1ccc(OCC(=O)N2CCCCC2)cc1 (centres undefined)	·	-1	-12	1	5	-3	i	·
CC(C)[C@H]1COCCS(=O)(=O)N1Cc1ccc(Cl)cc1	-10	1	5	3	3	0	i	-8
CC(C)Nc1ncnc2c1ncn2[C@H]1CN(Cc2ccncc2)C[C@@H](CO)O1	9	·	·	2	3	·	·	-8
COc1ccc(CC(N)c2csc(NC(=O)Cc3ccccc3)n2)cc1 (centres undefined)	-13	·	·	2	4	·	·	-20

This is a subset, so the mix of outcomes need not match the whole.
